# Source: PubChem BioAssay (several laboratories)
# RecA splice inh: Mtb RecA intein splicing inhibition | P9WHJ3 | cell-free RecA intein splicing, fluorescence | inhibition, %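 (about 9 µM by stock and volumes)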 | 290,000 tested, 0.75% active | AID 2221; in the data active = inhibition above about 30%; inconclusive = no clear call, values can overlap the other calls;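 also: 0% = vehicle wells and 100% = reference inhibitor control wells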
# Target sequence (P9WHJ3 whole entry, looked up, canonical isoform): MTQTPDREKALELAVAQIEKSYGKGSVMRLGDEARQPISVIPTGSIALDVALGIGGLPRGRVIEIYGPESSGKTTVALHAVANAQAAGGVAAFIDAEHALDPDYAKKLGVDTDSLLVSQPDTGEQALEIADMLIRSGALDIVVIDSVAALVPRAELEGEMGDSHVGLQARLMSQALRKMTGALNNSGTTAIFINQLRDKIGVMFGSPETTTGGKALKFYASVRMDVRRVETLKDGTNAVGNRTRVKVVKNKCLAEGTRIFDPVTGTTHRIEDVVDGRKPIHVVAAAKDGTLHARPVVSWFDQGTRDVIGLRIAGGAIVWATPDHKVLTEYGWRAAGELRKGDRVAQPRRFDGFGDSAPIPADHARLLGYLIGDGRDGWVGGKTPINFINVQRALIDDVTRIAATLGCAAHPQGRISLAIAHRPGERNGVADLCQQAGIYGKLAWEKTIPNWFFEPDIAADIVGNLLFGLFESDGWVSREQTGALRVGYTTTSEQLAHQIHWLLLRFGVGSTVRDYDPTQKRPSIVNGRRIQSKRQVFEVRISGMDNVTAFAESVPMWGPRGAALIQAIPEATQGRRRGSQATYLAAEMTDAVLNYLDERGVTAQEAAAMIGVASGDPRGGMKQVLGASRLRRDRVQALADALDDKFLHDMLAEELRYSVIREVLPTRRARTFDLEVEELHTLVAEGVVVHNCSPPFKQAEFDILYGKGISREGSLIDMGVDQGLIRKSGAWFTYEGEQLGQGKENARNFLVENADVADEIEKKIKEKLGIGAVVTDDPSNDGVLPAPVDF
# YopH inh: YopH (Yersinia) phosphatase inhibition | fluorescence Ex485/Em525 | inhibition, %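 (about 10 µM by stock and volumes)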 | 140,000 tested, 0.16% active | AID 898;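 active = inhibition of 50% or more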;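 also: controls were vehicle for no effect and minimum signal wells for full effect; inactives centre near -20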
# Arbovirus anti: arbovirus infection inhibition; inhibition, % at 10 µM; arbovirus infection cell-based antiviral screen; 200,000 tested, 0.37% active;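 active = inhibition from about 30%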;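 also: bluetongue infection of BSR cells; cell survival read as ATP light after 72 h; 0% = infected wells without compound and 100% = uninfected wells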
# Mtb growth: M. tuberculosis H37Rv growth inhibitors, H37Rv strain (AID 1626); M. tuberculosis H37Rv growth inhibition; higher % means a stronger effect; inhibition, % at 10 µM, or IC50 in µM where a hit was titrated; 220,000 tested, 0.95% active;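 active = confirmed in a dose series; inconclusive = inhibition above 80% but not taken into the dose series; inactive = below 80% or under 30% at every dose of the series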;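 also: bacteria incubated seven days before Alamar blue readout; 0% = bacteria only wells and 100% = bacteria with antibiotic wells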
# Mtb bLac sens: beta-lactam sensitization of Mtb H37Rv; inhibition, % at 25 µM; AID 434955; 330,000 tested, 0.27% active; M. tuberculosis H37Rv growth with meropenem, percent inhibition; hits of this screen are not shown here;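 active = about 74% or more and at least 40 points above the plate without the antibiotic, then above 30% in a dose series; inconclusive = first-round hits that could not be retested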;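 also: growth measured after seven days incubation then overnight dye step; 0% = bacteria only wells and 100% = bacteria with antibiotic; twin plates without the antibiotic show which effects depend on it; some results filed as inactive read as strong as hits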
# Arbovirus anti repeat: also measured in Arbovirus anti; calls as there; inhibition, %; measured here: 10K subset replicate screen; many hits read low in the repeat;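 first of two repeat runs on a subset; 0% = infected and 100% = uninfected wells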
# Numbers without * were called inactive; ? = inconclusive; · = no result given.
SMILES,RecA splice inh,YopH inh,Arbovirus anti,Mtb growth,Mtb bLac sens,others
CCOCc1nnc(NC(=O)c2cc(OC)cc(OC)c2)s1,-1.5,·,-1,-1%,-5,
Cc1ccc(S(=O)(=O)N2CCC(C(N)=O)CC2)cc1[N+](=O)[O-],-3.0,·,·,·,0,
O=C(COc1ccc(S(=O)(=O)N2CCOCC2)cc1Cl)NCC1CCCO1 (configuration not stated),-0.6,·,·,·,-8,
CCOC(=O)c1sc(NC(=O)CCc2ccc(OC)cc2)nc1C,-0.7,·,·,·,-3,
Cc1cnc(C(=O)Nc2nnc(SCc3c(Cl)cccc3Cl)s2)cn1,-1.2,-17,-33,8.2µM*,75,
OCCN1CCN(CC(O)COC(c2ccc(F)cc2)c2ccc(F)cc2)CC1 (configuration not stated),-0.8,·,·,·,?,
CNS(=O)(=O)c1cccc(C(=O)OCC(=O)NCCCc2ccccc2)c1,-2.4,·,·,·,4,
O=C(CSc1ncccn1)NCc1cccc(Cl)c1,-2.3,·,3,3%,5,
Cc1nc2c(C#N)cnn2c2c1CCN2CC1CCCO1 (configuration not stated),·,·,4,-9%,-2,
CCOC(=O)C1CCCN(CC(=O)NC2CC2)C1 (configuration not stated),3.2,·,10,-4%,-4,
CC1CCC(NC(=O)CCN2C(=O)C3C4C=CC(C4)C3C2=O)CC1 (configuration not stated),2.1,·,·,·,3,
O=C(Oc1c(CN2CCOCC2)cc(Cl)c2cccnc12)c1ccccc1,0.9,·,-11,0%,93,
Cc1ccc2nc3sc(C(=O)Nc4ccc(N5CCOCC5)cc4)c(N)c3cc2c1,-0.4,-41,-23,·,·,
COc1cccc(=O)c2c(C)oc(C)c12,-1.4,9,9,-5%,5,
c1cc2c(cc1CCNC1CCCCCC1)OCO2,-1.0,-21,-17,2%,-25,
O=C(COc1ccc(Cl)cc1)NCc1ccncc1,6.9,·,-6,1%,-2,
Cc1cc(C)c2nc(N)sc2c1,0.8,-26,3,10%,2,
NC(=O)c1ccc(=O)n(Cc2ccc(F)c(F)c2)c1,1.9,·,·,·,-3,
Cc1cc2cc(CCNC(=O)C(=O)c3c[nH]c4ccccc34)c(=O)[nH]c2cc1C,0.1,·,21,3%,-4,
O=C(CP(=O)(c1ccccc1)c1ccccc1)N1CCOCC1,-3.3,·,12,2%,-3,
CCOc1cccc(C(=O)N(Cc2ccco2)C2CCS(=O)(=O)C2)c1 (configuration not stated),-0.4,-28,7,-3%,-6,
Cc1ccc(-n2ncc(C(=O)NC3CC3)c2C2CCN(C(=O)OC(C)(C)C)CC2)c(C)c1,0.5,·,·,·,1,
COC(=O)CN(c1ccccc1[N+](=O)[O-])S(=O)(=O)c1ccccc1,-2.3,·,7,1%,-11,
Cc1ccc(NC(=O)CN(C)C(=O)COC(=O)CNS(=O)(=O)c2ccc(F)c(F)c2F)cc1,-0.9,·,·,·,-13,
CCOC(=O)Cc1csc2nc3sc(C)c(C)c3c(=O)n12,5.1,-22,10,-7%,3,
COc1ccc(OCC(=O)Nc2cc(OC)ccc2N2CCCCC2)cc1,0.1,·,·,·,5,
Cc1cc(-c2cc(-c3ccc(Cl)cc3)on2)nc(NC2CCCC2)n1,2.0,·,·,17%,54,
COc1ccc(/C=N/N2C(=O)CN(C(=O)c3ccccc3)C2c2ccc(OC)cc2)cc1 (configuration not stated),10.0,·,·,2%,0,
CNCc1ccccc1Sc1cccc(O)c1,-1.3,-34,7,8%,-2,
Cc1ccc(NC(=O)c2ccc3snnc3c2)cc1C,-0.4,·,·,·,-8,

# 25 consecutive compounds already listed:
SMILES,RecA splice inh,YopH inh,Arbovirus anti,Mtb growth,Mtb bLac sens,others
OCCN1CCN(CC(O)COC(c2ccc(F)cc2)c2ccc(F)cc2)CC1 (configuration not stated),-0.8,·,·,·,?,
CNS(=O)(=O)c1cccc(C(=O)OCC(=O)NCCCc2ccccc2)c1,-2.4,·,·,·,4,
O=C(CSc1ncccn1)NCc1cccc(Cl)c1,-2.3,·,3,3%,5,
Cc1nc2c(C#N)cnn2c2c1CCN2CC1CCCO1 (configuration not stated),·,·,4,-9%,-2,
CCOC(=O)C1CCCN(CC(=O)NC2CC2)C1 (configuration not stated),3.2,·,10,-4%,-4,
CC1CCC(NC(=O)CCN2C(=O)C3C4C=CC(C4)C3C2=O)CC1 (configuration not stated),2.1,·,·,·,3,
O=C(Oc1c(CN2CCOCC2)cc(Cl)c2cccnc12)c1ccccc1,0.9,·,-11,0%,93,
Cc1ccc2nc3sc(C(=O)Nc4ccc(N5CCOCC5)cc4)c(N)c3cc2c1,-0.4,-41,-23,·,·,
COc1cccc(=O)c2c(C)oc(C)c12,-1.4,9,9,-5%,5,
c1cc2c(cc1CCNC1CCCCCC1)OCO2,-1.0,-21,-17,2%,-25,
O=C(COc1ccc(Cl)cc1)NCc1ccncc1,6.9,·,-6,1%,-2,
Cc1cc(C)c2nc(N)sc2c1,0.8,-26,3,10%,2,
NC(=O)c1ccc(=O)n(Cc2ccc(F)c(F)c2)c1,1.9,·,·,·,-3,
Cc1cc2cc(CCNC(=O)C(=O)c3c[nH]c4ccccc34)c(=O)[nH]c2cc1C,0.1,·,21,3%,-4,
O=C(CP(=O)(c1ccccc1)c1ccccc1)N1CCOCC1,-3.3,·,12,2%,-3,
CCOc1cccc(C(=O)N(Cc2ccco2)C2CCS(=O)(=O)C2)c1 (configuration not stated),-0.4,-28,7,-3%,-6,
Cc1ccc(-n2ncc(C(=O)NC3CC3)c2C2CCN(C(=O)OC(C)(C)C)CC2)c(C)c1,0.5,·,·,·,1,
COC(=O)CN(c1ccccc1[N+](=O)[O-])S(=O)(=O)c1ccccc1,-2.3,·,7,1%,-11,
Cc1ccc(NC(=O)CN(C)C(=O)COC(=O)CNS(=O)(=O)c2ccc(F)c(F)c2F)cc1,-0.9,·,·,·,-13,
CCOC(=O)Cc1csc2nc3sc(C)c(C)c3c(=O)n12,5.1,-22,10,-7%,3,
COc1ccc(OCC(=O)Nc2cc(OC)ccc2N2CCCCC2)cc1,0.1,·,·,·,5,
Cc1cc(-c2cc(-c3ccc(Cl)cc3)on2)nc(NC2CCCC2)n1,2.0,·,·,17%,54,
COc1ccc(/C=N/N2C(=O)CN(C(=O)c3ccccc3)C2c2ccc(OC)cc2)cc1 (configuration not stated),10.0,·,·,2%,0,
CNCc1ccccc1Sc1cccc(O)c1,-1.3,-34,7,8%,-2,
Cc1ccc(NC(=O)c2ccc3snnc3c2)cc1C,-0.4,·,·,·,-8,

# (further entries)
SMILES,RecA splice inh,YopH inh,Arbovirus anti,Mtb growth,Mtb bLac sens,others
COc1ccc(S(=O)(=O)N2CCC[C@H]2C(=O)NC2=NCCS2)cc1,-0.1,2,6,-6%,13,
CC(=O)Nc1ccc(Nc2nc(C)c([N+](=O)[O-])c(Nc3ccccc3)n2)cc1,-1.8,-33,-3,1%,-4,
CN(CCNC(=O)c1cn(C)c2ccc(S(=O)(=O)N(C)C)cc2c1=O)CCc1ccccc1,0.7,·,-4,-12%,7,
COc1cccc(C(=O)Nn2cnnc2)c1,-18,·,0,0%,-9,
O=C(COc1cccnc1[N+](=O)[O-])Nc1ccc2c(c1)OCO2,3.2,·,-5,-2%,-4,
Cc1sc(N)nc1-c1ccccc1,2.2,·,0,>100µM*,85,
O=C(Nc1cc(Sc2ccccn2)cc([N+](=O)[O-])c1)c1ccc([N+](=O)[O-])cc1,2.3,-5,-8,·,3,
CCC(NS(=O)(=O)c1ccc(C)cc1)C(=O)O (configuration not stated),-7.5,-52,0,-2%,-2,
Cc1cc(C)nc(SCC(=O)c2ccc(C)c(C)c2)n1,2.5,·,·,·,-1,
C=C(C)C1CC=C(C)/C(=N/NC(=O)CNc2ccc(C)cc2C)C1 (configuration not stated),-0.6,-19,5,-8%,3,

# 3 compounds from above, sorted by number of heavy atoms, lowest first.
SMILES,RecA splice inh,YopH inh,Arbovirus anti,Mtb growth,Mtb bLac sens,others
Cc1sc(N)nc1-c1ccccc1,2.2,·,0,>100µM*,85,
CCC(NS(=O)(=O)c1ccc(C)cc1)C(=O)O (configuration not stated),-7.5,-52,0,-2%,-2,
C=C(C)C1CC=C(C)/C(=N/NC(=O)CNc2ccc(C)cc2C)C1 (configuration not stated),-0.6,-19,5,-8%,3,

# (cont.)
SMILES,RecA splice inh,YopH inh,Arbovirus anti,Mtb growth,Mtb bLac sens,others
CCOc1ccc(NC(=O)C23CC4CC(C2)CC(c2ccccc2)(C4)C3)cc1,7.1,-42,8,11%,8,
CCCCCCC(=O)Nc1nnc(CC)s1,-1.4,-13,4,8%,7,
NC(=O)c1c(NC(=O)CN2CCOCC2)sc2c1CCC2,-0.9,-31,8,-5%,-2,
N#Cc1ccc(OCC(O)CS(=O)(=O)c2ccc(F)cc2)cc1 (configuration not stated),1.2,·,12,3%,-5,
CC1CCCCN1S(=O)(=O)Cc1ccccc1Cl (configuration not stated),-0.4,·,·,·,-5,
COc1ccccc1OCCNC(=O)c1ccc2c(c1)OCCO2,-4.4,·,·,·,-2,
CCC(C)NC(=O)C1CCC(=O)N(c2ccc3c(c2)OCO3)C1c1ccc(OC)cc1 (configuration not stated),-0.5,31,-1,-7%,-2,Arbovirus anti repeat=5
Cc1ccc(-n2[nH]c(C)c(C=Nc3ccc(Br)cn3)c2=O)cc1,0.5,·,-15,2%,5,
CCOc1ccc(OCC(=O)NCCc2nc3ccccc3[nH]2)cc1,·,17,5,-3%,-1,
CC(C)c1ccc(OCC(=O)NNC(=O)c2cnccn2)cc1,0.0,·,·,?,92,
C[N+]1(C)CCN(c2ccccc2)CC1,-2.2,-31,1,-3%,-4,
Cc1ccc(F)cc1NC(=O)c1sc2ncn(CC(=O)N3CCN(c4ccccn4)CC3)c(=O)c2c1C,-0.8,·,·,·,-10,
COc1ccccc1CNC(=O)c1cc2c(C)nn(Cc3ccc(F)cc3)c2s1,18,1,6,9%,·,
CCOC(=O)C1CCN(C(=O)Cn2nc(C)n3nc(-c4ccc(CC)cc4)cc3c2=O)CC1,-1.9,·,·,·,9,
CC(C)[C@H](NC(=O)C1CCN(C(=O)[C@H](Cc2ccccc2)NC(=O)OC(C)(C)C)CC1)C(=O)O,-1.9,·,·,·,?,
C=CCNC(=O)c1ccc(Cn2cc(C(F)(F)F)ccc2=O)cc1,-0.9,·,-2,-4%,-6,
Oc1oc(-c2cccc3ccccc23)nc1/C=N/c1nccs1,0.6,-61,-4,9%,57,
O=C(CNC(=O)c1cccc(F)c1)OCCOc1cccc(Cl)c1,-2.4,·,·,·,8,
O=C(/C=C/c1ccc2c(c1)OCO2)c1ccc(F)cc1,-0.1,-22,-9,3%,16,
Cc1nc(-c2ccc(S(=O)(=O)Nc3cc(F)ccc3F)cc2)co1,0.3,·,·,·,-6,
O=C(N/C(=C\c1cn(-c2ccccc2)nc1-c1ccccc1)C(=O)N1CCOCC1)c1ccccc1,-1.3,-2,9,-3%,2,
COc1ccccc1C(=O)n1nc(C)cc1C,0.3,-42,1,5%,-4,Arbovirus anti repeat=0
O=C(Cc1ccccc1)Nc1ccccc1C(=O)N1CCCCC1,-1.7,·,·,·,-13,
CCOC(OCC)c1ccc(/C=C\c2nccc(N)n2)cc1,1.3,·,·,·,-5,
Cc1c(C(=O)Nc2ccc(S(=O)(=O)NCC3CCCO3)cc2)cccc1[N+](=O)[O-] (configuration not stated),-4.0,·,1,6%,-3,
O=C(C1CCCN(S(=O)(=O)c2cccnc2)C1)N1CCN(c2ccccn2)CC1 (configuration not stated),3.2,-12,1,-1%,3,
COc1ccc(Cn2nnnc2C(c2cccnc2)N2CCN(c3ccc(O)cc3)CC2)cc1 (configuration not stated),-6.8,0,-5,-6%,-3,
COc1ccc(NS(=O)(=O)c2csc(C(N)=O)c2)cc1,0.6,·,·,·,-4,
Cc1ccc(C(=O)c2no[n+]([O-])c2C(=O)c2ccc(C)cc2)cc1,2.8,20,7,10%,-3,
CS(=O)(=O)N(Cc1ccc(Cl)cc1)c1ccc(C(=O)NCC2CCCO2)cc1 (configuration not stated),-0.4,·,10,-10%,4,
CC(OC(=O)c1cc(S(=O)(=O)N2CCOCC2)ccc1F)C(=O)NC1CCCCC1C (configuration not stated),1.9,·,·,·,1,
CSCCC(NC(=O)c1ccc(C)o1)C(=O)O (configuration not stated),-1.3,-11,3,-1%,-5,
COc1ccc2c(c1)C1=NN(/C(C)=C/C(C)=O)C(c3ccc(F)cc3)C1CC2 (configuration not stated),11,-18,1,10%,12,
NC(=O)C1CCN(C(=O)c2ccco2)CC1,-1.1,-25,5,-12%,-1,
COc1ccc(CC(=O)N/N=C/c2ccc(-c3ccc(F)cc3)o2)cc1OC,0.1,·,·,?,60,
CN1C(=O)N(C)C(=O)C2(Cc3c(nc4ccccn4c3=O)N3CCc4ccccc4C32)C1=O (configuration not stated),1.9,-2,6,-6%,-11,

# The list is partial (hit frequency here may not be typical).
